Screens deposited in PubChem by National Center for Advancing Translational Sciences (NCATS).
Rango-impB inh = Rango-importin beta binding inhibition. Q14974. Rango CFP/YFP FRET sensor + importin beta, 45 min. Potency, µM (top dose mostly 92.2 µM), for the others: at the top dose inhibition of complex formation. 340,000 compounds, 0.031% hits. AID 540263; active = rising FRET ratio curve, often small or poorly fitted; inconclusive = mostly compound fluorescence or quenching in the first reads; inactive = flat curves in all reads;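 further: potency means the concentration at half of the fitted maximal effect; 0% = DMSO wells and 100% = buffer wells lacking importin beta; nearly all actives have a fitted effect of over 15% in size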
Target sequence (Q14974 whole entry, looked up): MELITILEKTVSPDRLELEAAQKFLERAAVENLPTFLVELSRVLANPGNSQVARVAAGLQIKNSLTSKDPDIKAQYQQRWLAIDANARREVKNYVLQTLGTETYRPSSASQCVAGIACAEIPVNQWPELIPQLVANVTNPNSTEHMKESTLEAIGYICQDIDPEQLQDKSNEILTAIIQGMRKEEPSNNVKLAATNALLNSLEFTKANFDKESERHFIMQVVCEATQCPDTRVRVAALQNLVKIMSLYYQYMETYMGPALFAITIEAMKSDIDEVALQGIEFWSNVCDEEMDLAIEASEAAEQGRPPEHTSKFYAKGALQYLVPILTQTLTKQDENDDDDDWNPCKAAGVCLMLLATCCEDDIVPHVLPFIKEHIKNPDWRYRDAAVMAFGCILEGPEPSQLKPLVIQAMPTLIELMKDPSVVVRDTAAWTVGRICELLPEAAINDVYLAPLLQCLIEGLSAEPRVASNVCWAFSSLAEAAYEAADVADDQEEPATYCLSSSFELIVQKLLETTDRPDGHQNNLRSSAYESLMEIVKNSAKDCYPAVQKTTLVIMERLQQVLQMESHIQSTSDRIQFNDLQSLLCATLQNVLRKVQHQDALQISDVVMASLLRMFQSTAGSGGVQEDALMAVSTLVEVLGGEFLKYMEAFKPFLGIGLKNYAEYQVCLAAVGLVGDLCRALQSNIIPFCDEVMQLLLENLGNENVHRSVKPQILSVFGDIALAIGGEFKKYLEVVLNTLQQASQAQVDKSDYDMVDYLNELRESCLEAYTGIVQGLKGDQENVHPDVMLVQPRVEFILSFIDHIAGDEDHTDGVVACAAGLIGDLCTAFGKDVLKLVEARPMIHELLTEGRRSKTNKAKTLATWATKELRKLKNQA
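FRET biosensor (snurportin 1 IBB flanked by EYFP and cerulean), 50 nM, with compound 5 min, then 0.125 microM importin beta in PBS, 1 mM DTT, 0.02% Tween-20, 0.1% BSA. CFP/YFP ratio read after 45 min at room temperature; pre-read flags interference.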
miR-21 FLuc = raises the signal of a miR-21 reporter; Potency, µM (top dose mostly 38.3 µM), without a hit: top-dose reporter change, positive = more light; 340,000 tested, under 10 active; HeLa miR-21 FLuc reporter, luciferase, 48 h; active = well fitted rising curve with a large enough effect; inconclusive = small, poorly fitted or top-dose-only effect; inactive = no such curve, though single readings can be large or run the other way;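 further: % of control where 0% means no effect; miR-21 action dims this reporter so a rising signal means less miR-21 action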
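Compounds were titrated across several concentrations (up to approximately 40 uM) and incubated 48 hours with HeLa miR-21-FLuc reporter cells (miR-21 target sequence downstream of FLuc, endogenous miR-21). Readout was firefly luciferase luminescence after lytic detection reagent.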
GLA inh pH 4.5 = blocks human alpha-galactosidase A at pH 4.5; activity change, negative = inhibition, % at 105 µM; AID 1467; purified enzyme, 4-MU-alpha-Gal fluorescence, pH 4.5; P06280; 230,000 tested, under 10 active; inconclusive = small, poorly fitted or top-dose-only inhibition, or a rising curve; inactive = flat fitted curve, though single readings scatter; no compound was filed as active;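 further: 0% = full activity with enzyme and -100% = basal without enzyme; dose as in the result columns while the protocol names 77 µM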
Rango dissoc inh = inhibitors of RanGTP-induced Rango-importin beta complex dissociation; 340,000 compounds, 0.071% hits; Biochemical FRET Rango-importin beta, RanGTP-induced dissociation; O95149+P62826; Potency, µM (top dose mostly 46.1 µM), for inactives: at the highest dose activity change, negative = inhibition; AID 540253; active means falling FRET ratio curve, often poorly fitted, with flat reads before Ran was added; inconclusive means other falling curves, or compound fluorescence or quenching; inactive means flat or rising ratio curve;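 further: potency means the concentration at half of the fitted maximal effect; % of control where 0% means no effect; nearly all actives have a fitted effect of over 45% in size; -100% = wells without RanGTP and RCC1; the record marks most hits as doubtful in a second field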
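FRET read at 45 min, room temperature: inhibitors block the CFP/YFP signal rise when RanGTP (0.6 uM Ran, 2 mM GTP, 0.2 uM RCC1) frees Rango (0.1 uM) from importin beta (0.25 uM). Pre-read after 5 min compound exposure flags interference.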
An asterisk follows results filed as active; ? = inconclusive; / = no result given; & = joins results of further samples. Only part of the results is shown; the hit share may differ from the screen's.

Values run as follows: Rango-impB inh, miR-21 FLuc, GLA inh pH 4.5, Rango dissoc inh
CC(=O)Nc1ccc(C(=O)CSc2nnc(C)o2)cc1
 : 0.0%, -5%, 5, 1%
CC1CCN(C(=O)COC(=O)c2cc3ccccc3cc2O)CC1
 : 3.0%, -19%, 5, -1%
O=C(COC(=O)c1cc([N+](=O)[O-])ccc1N1CCOCC1)Nc1ccc(Cl)cc1
 : 4.5%, 14%, /, 26%
CCn1c(SCc2ccc(F)cc2)nnc1C1CCN(S(=O)(=O)c2ccc(OC)cc2)CC1
 : -1.9%, 11%, 5, -6%
CC(C)(C)c1cc(N)n(-c2ccc(C(=O)O)cc2)n1
 : 1.3%, -4%, 9, 2%
CCc1ccccc1NC(=O)CN1CCN(C(=O)C(C)NC(=O)c2ccc(Cl)cc2)CC1 (stereo not given)
 : -0.4%, /, /, -12%
CC(C)(C)NC(=O)C(=O)NNC(=O)COc1ccccc1
 : -1.5%, -1%, 1, -4%
Cc1ccc(N(CC(=O)NCc2ccc(Cl)cc2)S(C)(=O)=O)cc1
 : -0.6%, -17%, /, -2%
Cc1ccc(CNc2nc(C)cs2)cc1
 : -1.2%, -46%, /, 3%
COc1ccc(CN(C(=O)c2nsc(Cl)c2Cl)C(C(=O)NC2CCCC2)c2ccc(OC)cc2)cc1 (stereo not given)
 : 0.1%, 4%, 8, 1%
CCOCCCNC(=O)CCn1ccc2cc(S(=O)(=O)N3CCCC3)ccc21
 : -0.5%, 1%, /, 3%
COC(=O)c1cn(C(=O)c2ccccc2F)nc1N
 : 3.7%, -6%, -4, -1%
CC(=O)c1sc(Nc2cccc(C)c2)nc1C
 : -0.6%, -56%, 1, -7%
CCN(CC)C(=O)c1oc2ccc(S(=O)(=O)N3CCCCCC3)cc2c1C
 : -0.6%, 15%, 0, 18%
CCNc1nc(NC(C)CC)nc(Oc2ccc(OCC)nn2)n1 (stereo not given)
 : -0.8%, -14%&-17%, 1, 1%
Cc1cc(Cl)cc(Cl)c1OCCOc1cccc2cccnc12
 : 0.1%, -17%, 4, 0%
O=C(CSc1nnc(Nc2ccccc2F)s1)c1cc2ccccc2o1
 : -0.6%, -34%, -1, -4%
COc1cccc(-n2c(SCC(=O)O)nnc2-c2cccnc2)c1
 : 0.2%, -11%, 4, 0%
COc1ccc(C2=NOC(C(=O)NCC(C)C)C2)cc1 (stereo not given)
 : -2.8%, -34%, 2, 0%
CC1CCN(Cc2c(C(=O)N/N=C/c3cc(Br)ccc3O)nnn2-c2nonc2N)CC1
 : -4.8%, ?, /, 1%
Cc1cc(S(=O)(=O)NCCCN2CCOCC2)ccc1F
 : 0.4%, 0%, 5, 22%
Cc1nc2ccccn2c1C(=O)NN
 : 3.6%, -3%, -11, -9%
COC(=O)c1c(NC(=O)CN2CCN(S(=O)(=O)c3ccccc3)CC2)sc2c1CCC(C)C2 (stereo not given)
 : /, -3%, -13, /
COc1cccc(-c2cc(C(=O)Nc3cccc(O)c3)no2)c1
 : -1.6%, 15%, -11, 0%
CC(=O)c1cccc(NC(=O)c2ccc3c(Cl)c4c(nc3c2)CCCC4)c1
 : 2.6%, -15%, 4, -4%
O=C(C1CCN(S(=O)(=O)c2cccnc2)CC1)N1CCN(C2CCCC2)CC1
 : -1.8%, -6%, 0, -6%
O=C(CN1C(=O)c2ccccc2C1=O)N1CCN(C(=O)c2ccco2)CC1
 : -2.0%, 0%, 3, -15%
Cc1ccc(N(C(=O)c2csnn2)C(C(=O)NCc2ccccc2)c2ccccn2)cc1 (stereo not given)
 : -0.3%, 3%, /, -2%
O=C(c1c[nH]c2ccc(S(=O)(=O)N3CCOCC3)cc2c1=O)N1CCCC1
 : -2.5%, -1%, -6, -5%
O=c1c2ccccc2cnn1CCOc1ccccc1
 : 0.6%, ?, -18, -10%
COc1cc(/C=C/C(=O)OCC(=O)Nc2nnc(-c3ccccc3)o2)cc(OC)c1OC
 : 0.1%, /, /, 7%
CCOC(=O)c1cnc2c(C)c(Cl)ccc2c1N1CCOCC1
 : 1.3%, -9%, -7, -4%
O=C(CCn1nnc2ccccc21)OCC(=O)c1ccc([N+](=O)[O-])cc1
 : -3.7%, -1%, /, 7%
COc1cccc(C(C2=C(O)CC(C)(C)CC2=O)C2C(=O)CC(C)(C)CC2=O)c1 (stereo not given)
 : -0.3%, 2%, -9, 13%
CCOC(=O)C(C)(C)Oc1cccc2c1S(=O)(=O)c1ccccc1-2
 : 4.0%, /, /, -2%
Cc1nc2ccccc2c(=O)n1NC(=O)c1ccccc1F
 : -0.3%, -8%, /, 27%
CCSc1nnc(C)c2ccccc12
 : 0.9%, -20%, -7, 0%
CCCn1c(C(C)C)n[nH]c1=S
 : 0.3%, -1%, -1, 12%
CCCN1Cc2cccc(C(=O)Nc3ccc4c(c3)OCO4)c2C1=O
 : 2.5%, -8%, ?, 1%
O=C(COC(=O)c1ccc(S(=O)(=O)Nc2ccccc2)cc1)NC1CCCC1
 : -3.0%, -1%, 2, -15%
Nc1ncc2c(n1)CCN(c1ccc([N+](=O)[O-])cc1)C2
 : -4.4%, -10%, /, -20%
Nc1c(C(=O)Nc2ccccc2F)sc2nc(Cc3ccccc3)cc(C(F)(F)F)c12
 : ?, 3%, 10, ?
CCN(CC)C(=O)COC(=O)C1CCN(S(=O)(=O)c2ccc3c(c2)OCCO3)CC1
 : -1.9%, /, /, 1%
N#Cc1cc([N+](=O)[O-])ccc1NCCN1CCOCC1
 : 1.2%, 1%, -1, -5%
Cc1ccccc1N(Cc1cc(=O)[nH]c2ccccc12)C(=O)C(C)C
 : -2.4%, -5%, /, -5%
Cc1c(Cl)cccc1NC(=O)CCN1CCCCC1
 : 0.0%, -7%, -7, 8%
COc1ccc(-c2cc(C(=O)N3CCCCCC3)no2)cc1
 : 0.8%, -49%, /, -6%
O=C(CSc1nc2ccccc2c(=O)[nH]1)NCc1ccc(Cl)cc1
 : -3.6%, -5%, 9, 14%
O=c1c2ccccc2cnn1Cc1n[nH]c(=S)n1-c1ccccc1
 : -0.1%, -2%, 6, -3%
O=C(CN(C(=O)CCC(=O)Nc1ccccn1)c1ccc(F)cc1)NCc1ccc(F)cc1
 : -2.9%, 2%, /, -6%
Cc1noc(C)c1CSc1nc2ccccc2n1CCc1ccccc1
 : 0.3%, 1%, -1, 17%
COc1ccc(NC(=S)N2CCN(c3ccccn3)CC2)cc1
 : -3.9%, -21%, -8, 0%
CS(=O)(=O)N(CC(=O)Nc1ccc(S(=O)(=O)N2CCOCC2)cc1)c1ccccc1Cl
 : 1.7%, -1%, -1, -1%
N#C/C(=C\c1ccc(-c2ccccc2[N+](=O)[O-])o1)C(=O)Nc1nc(-c2cccs2)cs1
 : 5.0%, -5%, 2, -10%
COc1ccc([C@H]2CC(=O)C=C(c3cccc(Cl)c3O)C2)cc1OC
 : ?, /, /, ?
CCOC(=O)Cn1c(C(C)=O)nc2ccccc21
 : -3.7%, 0%, 4, 15%
COc1ccccc1Nc1ccc(S(=O)(=O)N2CCCCC2)cc1[N+](=O)[O-]
 : 1.3%, -3%, 0, -16%
COc1cc(S(=O)(=O)n2ccc(C)n2)c(OC)cc1Cl
 : -1.0%, -2%, 4, -9%
CCCCn1c(SCC(=O)Nc2ccc3c(c2)CCC3)nc2ccccc2c1=O
 : -0.5%, -8%, 2, -8%
Cc1ccccc1NC(=O)CN1C(=O)S/C(=C/c2cccnc2)C1=O
 : 1.6%, -1%, /, 16%

Following part:
Values run as follows: Rango-impB inh, miR-21 FLuc, GLA inh pH 4.5, Rango dissoc inh
COc1ccccc1C(=O)N1CCN(C(=O)c2oc3ccc(C)cc3c2C)CC1
 : -1.0%, 0%, /, -4%
O=C(NCc1ccccc1Cl)c1ccc(CSc2nc3ccncc3[nH]2)cc1
 : -0.8%, 9%, -2, -14%
CCOC(=O)N1CCN(C(=O)c2ccc(CS(=O)Cc3ccccc3Cl)o2)CC1 (stereo not given)
 : -2.9%, 0%, /, 0%
CCN(CC)C(=O)c1ccc2c(=O)n(CCOC)c(=S)[nH]c2c1
 : -0.7%, 11%, -3, -10%
COc1ccc(NCc2nnc(SCC(=O)Nc3cc(C(F)(F)F)ccc3Cl)o2)cc1
 : 4.3%, -1%, -8, -5%
Cc1c(-c2ccccc2)n[nH]c1C(=O)NN
 : 4.2%, -38%, -7, -3%
COc1ccc2[nH]c(=O)c(CN(CCCN(C)C)C(=O)Nc3ccccc3)cc2c1
 : 2.7%, -6%, 4, -2%
O=C(CCc1ccc(S(=O)(=O)N2CCOCC2)cc1)N/N=C/c1ccc(O)c(O)c1O
 : -2.6%, -5%, 0, -8%
COC(=O)/C=C1\N/C(=N/c2nc(C)c3cc(OC)ccc3n2)NC1=O
 : 0.1%, 2%, /, 16%
O=C(COC(=O)c1ccccc1-n1cnnn1)c1ccccc1
 : 0.1%, /, /, 16%
O=C(CCSc1ccc(F)cc1)NNC(=O)c1ccccc1Cl
 : 0.5%, /, /, -7%
Cc1cccn2cc(CCNS(=O)(=O)c3cccs3)nc12
 : 0.9%, -24%, 6, 29%
Cc1ccc(C(=O)N2CCN(Cc3nc4sc5c(c4c(=O)[nH]3)CCCC5)CC2)cc1
 : -0.2%, 0%, /, 15%
COc1cc(C(=O)NCC(=O)Nc2c(C)cccc2C)ccc1OCc1ccccc1
 : -0.9%, /, /, -12%
COc1cccc(C(=O)Nc2cccc(-c3nnc(-c4ccco4)o3)c2)c1
 : 0.4%, 30%, 2, -4%
Cc1cc2c(c(=O)n1Cc1ccccn1)C(c1ccc3c(c1)OCO3)C(C#N)=C(N)O2 (stereo not given)
 : -3.3%, -5%, -2, -14%
O=C(NC1CCCC1)C(c1ccsc1)N(Cc1ccccc1)C(=O)Cc1cccs1 (stereo not given)
 : -7.0%, 10%, -5, 1%
Nc1cc(=O)[nH]c(SCC(=O)Nc2ccccc2Sc2ccc(Cl)cc2)n1
 : -0.6%, 13%, 1, 5%
COc1ccc([C@@H]2C(C#N)=C(N)S[C@@H](c3ccccc3)[C@@H]2[N+](=O)[O-])cc1
 : -5.0%, -9%, -9, 0%
COc1cccc(-c2nnc(SCc3cccnc3)o2)c1
 : -0.3%, -31%, -7, 2%
CCCCCn1cnc2sc(-c3ccccc3)cc2c1=O
 : -2.2%, -58%, -25, 2%
COc1cccc(C(=O)NC2CC3CCCC(C2)N3CC(=O)Nc2ccc(N(C)C)cc2)c1 (stereo not given)
 : 3.7%, 3%, -19, 1%
CC(C)N(CC#CCC(O)(c1ccccc1)c1ccccc1)CCO
 : -0.3%, -1%, -1, 3%
CCC(C)NC(=O)Nc1ccccc1F (stereo not given)
 : -1.4%, -6%, 4, -1%
CN(c1ccc(C(=O)NCc2ccco2)cc1)S(C)(=O)=O
 : 1.7%, -11%, -7, -4%
O=C(CN(Cc1ccc(Br)cc1)S(=O)(=O)c1ccccc1)NCc1ccncc1
 : 1.4%, 3%, /, 20%
Cc1cc2nc(NCCCO)n(CC(=O)c3cc(C(C)(C)C)c(O)c(C(C)(C)C)c3)c2cc1C
 : -4.3%, /, /, 2%
COc1ccc(-n2c(=S)[nH]c3cc(C(=O)Nc4ccccc4OC)ccc3c2=O)cc1
 : /, -10%, 2, /
CC(Sc1nnc(Cc2cccs2)n1C1CCCCC1)C(N)=O (stereo not given)
 : -1.4%, -3%, -1, 11%
CCOc1cc(S(=O)(=O)NCc2ccccc2)ccc1F
 : 1.9%, -3%, -3, 7%
CC1(C)CC(=O)N(c2ccccc2)C1(C)O (stereo not given)
 : ?, 2%, -7, -5%
C=CCn1c(SCC(=O)C(C)(C)C)nnc1-c1cccs1
 : 2.5%, -18%, -11, 1%
COC(=O)[C@@H]1C[C@@H]2CC[C@@H](O)C[C@@H]2N1Cc1ccc(OC)cc1
 : -3.3%, 5%, -5&-1, -21%
COc1ccc(CCNC(=O)COC(=O)c2cnccn2)cc1
 : -5.1%, 8%, 0, 1%
